Bioassay records: PubChem, several laboratories
RecA splice inh = blocks M. tuberculosis RecA intein splicing; P9WHJ3; cell-free RecA intein splicing, fluorescence; inhibition, %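 (about 9 µM by stock and volumes)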; hit rate 0.75% among 290,000; in the data active = inhibition above about 30%;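 also: 0% = vehicle wells and 100% = reference inhibitor control wells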
Target sequence (P9WHJ3 whole entry, looked up, canonical isoform): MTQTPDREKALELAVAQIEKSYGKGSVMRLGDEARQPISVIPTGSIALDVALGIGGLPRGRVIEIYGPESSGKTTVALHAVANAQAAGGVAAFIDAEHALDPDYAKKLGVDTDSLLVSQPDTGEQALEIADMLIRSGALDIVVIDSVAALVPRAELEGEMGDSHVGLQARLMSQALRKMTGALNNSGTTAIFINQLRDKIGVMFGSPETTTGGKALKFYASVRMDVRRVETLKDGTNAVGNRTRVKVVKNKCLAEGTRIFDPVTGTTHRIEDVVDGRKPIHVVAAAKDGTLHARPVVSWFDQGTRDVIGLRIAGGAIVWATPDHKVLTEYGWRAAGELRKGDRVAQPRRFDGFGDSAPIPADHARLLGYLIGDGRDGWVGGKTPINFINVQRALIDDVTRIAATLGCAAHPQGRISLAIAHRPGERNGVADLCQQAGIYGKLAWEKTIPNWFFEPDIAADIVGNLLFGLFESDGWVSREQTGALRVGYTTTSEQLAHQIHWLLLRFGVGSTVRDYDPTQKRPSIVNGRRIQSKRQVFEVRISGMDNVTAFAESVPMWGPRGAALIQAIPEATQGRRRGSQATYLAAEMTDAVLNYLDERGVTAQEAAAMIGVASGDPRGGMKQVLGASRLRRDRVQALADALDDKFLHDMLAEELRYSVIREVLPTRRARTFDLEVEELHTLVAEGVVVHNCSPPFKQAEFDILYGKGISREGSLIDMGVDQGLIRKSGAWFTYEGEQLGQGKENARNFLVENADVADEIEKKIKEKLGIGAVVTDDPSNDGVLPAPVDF
Mtb bLac sens = beta-lactam sensitization of Mtb H37Rv | M. tuberculosis H37Rv growth with meropenem, percent inhibition; hits of this screen are not shown here | inhibition, % at 25 µM | hit rate 0.27% among 330,000 | AID 434955;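 active = about 74% or more and at least 40 points above the plate without the antibiotic, then above 30% in a dose series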;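 also: growth measured after seven days incubation then overnight dye step; 0% = bacteria only wells and 100% = bacteria with antibiotic; twin plates without the antibiotic show which effects depend on it; some results filed as inactive read as strong as hits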
YopH PTP inh = YopH (Yersinia) phosphatase inhibition; fluorescence Ex485/Em525; inhibition, %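 (about 10 µM by stock and volumes)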; hit rate 0.16% among 140,000; AID 898;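 active = inhibition of 50% or more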;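 also: controls were vehicle for no effect and minimum signal wells for full effect; inactives centre near -20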
Arbovirus inh = arbovirus infection inhibition | arbovirus infection cell-based antiviral screen | inhibition, % at 10 µM | hit rate 0.37% among 200,000;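 active = inhibition from about 30%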;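 also: bluetongue infection of BSR cells; cell survival read as ATP light after 72 h; 0% = infected wells without compound and 100% = uninfected wells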
Mtb growth = M. tuberculosis H37Rv growth inhibitors, H37Rv strain (AID 1626); M. tuberculosis H37Rv growth inhibition; higher % means a stronger effect; one-dose inhibition, % at 10 µM; IC50 in µM for titrated hits; hit rate 0.95% among 220,000;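 active = confirmed in a dose series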;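 also: bacteria incubated seven days before Alamar blue readout; 0% = bacteria only wells and 100% = bacteria with antibiotic wells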
Arbovirus inh repeat = second read-out of Arbovirus inh, no call of its own (marks repeat the call); inhibition, %; measured here: 10K subset replicate screen; many hits read low in the repeat;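 first of two repeat runs on a subset; 0% = infected and 100% = uninfected wells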
Starred values were filed as active, the others as inactive; · = no result given.

SMILES | RecA splice inh | Mtb bLac sens | YopH PTP inh | Arbovirus inh | Mtb growth | others
CC1CN(c2oc(-c3ccccc3Cl)nc2C#N)CC(C)O1 (stereo not given) | -0.5 | -3 | -59 | 4 | -4%
Cc1ccc(OCC(=O)NCc2cccs2)cc1 | 1.4 | 10 | -5 | -6 | 4%
Nc1cc(Cl)ccc1N1CCCCCC1 | 3.1 | -11 | · | 16 | -5%
COc1cc(S(=O)(=O)Nc2ccncc2)ccc1F | 3.7 | -2 | · | 5 | -1%
C=CCN(CCNP(=O)(OCC)OCC)CP(=O)(OCC)OCC | 0.4 | 0 | -32 | 10 | -11%
C(#Cc1ccccc1)C[N+]1(CC#Cc2ccccc2)CCCC1 | -0.9 | -2 | 1 | 7 | 2%
COc1ccc(N=C(N)N=C(N)N)c(OC)c1 | 5.7 | -3 | -17 | 4 | 3%
CCCCN(CC)C(=O)CN(C)S(=O)(=O)c1cccc2nsnc12 | -0.7 | 5 | -7 | 2 | -9%
Cc1cc(O)c(C(=O)/C=C/c2ccccc2O)c(=O)o1 | -6.2 | 3 | · | · | ·
O=C1NC(=O)C2(COC(c3cccc([N+](=O)[O-])c3)OC2)S1 (stereo not given) | -3.1 | 5 | · | 5 | 1%
Cc1ccc(CNC(=O)C2CCN(S(=O)(=O)c3cccs3)CC2)o1 | 1.9 | -13 | -28 | 1 | 1%
O=C1CSC(=S)N1/N=C/c1ccc2c(c1)OCCO2 | -1.0 | -3 | · | · | ·
Cc1ccc(S(=O)(=O)Nc2ccc(-c3nc4ccc(C)cc4s3)cc2)cc1 | 0.5 | -4 | -19 | 2 | 1%
Cc1cccc(NC(=S)N/N=C/c2cccn2Cc2ccc(F)cc2)c1 | 2.4 | 0 | · | 6 | 0%
Cc1ccc(NC(=O)CNC(=O)c2cccc(C)c2)nc1 | 1.2 | -10 | · | · | ·
O=C(NCCCN1CCOCC1)c1ccc(CNS(=O)(=O)c2ccc(Br)cc2)cc1 | 0.1 | -8 | -27 | 6 | 11%
COc1cc(C(=O)N2C[C@H]3CC[C@H]2C3)ccc1OC1CCN(C(C)=O)CC1 | 1.2 | -1 | · | · | ·
CC(C)C[C@@H](CO)N1CCN(Cc2cccc(C#N)c2)CCC1=O | -2.5 | -7 | · | · | ·
Cc1cccc(N2CCN(c3ccc(N4C(=O)CCCC4=O)cc3[N+](=O)[O-])CC2)c1C | 0.5 | 1 | -6 | 6 | 2%
O=C(O)CC1(CC(=O)Nc2ccc3c(c2)OCCCO3)CCCCC1 | -4.0 | -3 | · | · | 2%
O=C1CNC(=S)N1C1CCCCCC1 | -1.5 | -7 | · | · | ·
O=S(=O)(NCc1ccccc1)c1ccc(S(=O)(=O)NCC2CCCO2)cc1 (stereo not given) | -3.8 | -5 | · | 0 | -4%
CCOP(=O)(OCC)c1nc(-c2ccc(Br)cc2)oc1N1CCCCC1 | 4.1 | 7 | · | · | ·
CC(=O)NC(Cc1cccc(F)c1)C(=O)NC1CCN(C(=O)Nc2ccc(C)cc2)CC1 (stereo not given) | 2.7 | -2 | · | · | ·
O=C(Nc1ccc2c(c1)OCCO2)C1CCN(c2cnccn2)CC1 | 0.3 | -20 | -13 | -2 | -9%
COC(=O)c1ccc(-c2nc(-c3ccc(Br)o3)no2)cc1 | 1.7 | 2 | -42 | 0 | 3% | Arbovirus inh repeat=-2
CCOC(=O)c1c(C)c(C(=O)N2CCN(c3ccccc3)CC2)c(C)n1C | -2.3 | 3 | · | 10 | 9%
CCOc1cc2nc(-c3ccc(OC)c(OC)c3)nc(N3CCOCC3)c2cc1OC | 0.3 | 93 | -30 | 2 | 59%
Cc1ccc2c(C)c(C(=O)N3CCC(N4CCC(C(=O)NC5CC5)CC4)CC3)oc2c1 | -1.6 | -8 | · | · | -8%
N#CCc1ccc(OC(=O)Nc2ccccc2)cc1 | -0.8 | 0 | · | · | ·

A draw from above in order of SMILES length, ascending.
SMILES | RecA splice inh | Mtb bLac sens | YopH PTP inh | Arbovirus inh | Mtb growth | others
O=C1CNC(=S)N1C1CCCCCC1 | -1.5 | -7 | · | · | ·
N#CCc1ccc(OC(=O)Nc2ccccc2)cc1 | -0.8 | 0 | · | · | ·
COC(=O)c1ccc(-c2nc(-c3ccc(Br)o3)no2)cc1 | 1.7 | 2 | -42 | 0 | 3% | Arbovirus inh repeat=-2
O=C(Nc1ccc2c(c1)OCCO2)C1CCN(c2cnccn2)CC1 | 0.3 | -20 | -13 | -2 | -9%
O=S(=O)(NCc1ccccc1)c1ccc(S(=O)(=O)NCC2CCCO2)cc1 (stereo not given) | -3.8 | -5 | · | 0 | -4%
CC(=O)NC(Cc1cccc(F)c1)C(=O)NC1CCN(C(=O)Nc2ccc(C)cc2)CC1 (stereo not given) | 2.7 | -2 | · | · | ·

Next part
SMILES | RecA splice inh | Mtb bLac sens | YopH PTP inh | Arbovirus inh | Mtb growth | others
CC(=O)OCC(=O)Nc1ccc(Br)c(C)c1 | 2.8 | 19 | · | 5 | 22%
COc1cccc(CNCc2cc(OC)cc(OC)c2)c1 | 0.0 | -1 | · | · | ·
CC(C)(C)NC(=O)C(c1ccccc1)N(Cc1ccco1)C(=O)c1csnn1 (stereo not given) | 0.4 | 5 | -17 | -1 | -17%
O=C(CN1C(=O)c2ccccc2C1=O)NN1C(=O)c2ccccc2C1=O | 0.3 | -12 | -1 | 2 | -1%
Cc1c(NC(=O)Nc2cccc(C(F)(F)F)c2)c(=O)n(-c2ccccc2)n1C | 0.9 | 6 | · | · | ·
COc1ccc(S(=O)(=O)N2CCCCC2)cc1NC(=O)CSc1nccn1C | 0.6 | -2 | · | 0 | 4%
COc1cccc(OCC(O)CNC(=O)c2oc3c(C)c(C)ccc3c2C)c1 (stereo not given) | 7.5 | 14 | · | · | ·
Cc1ccccc1Nc1ncnc(N)n1 | -1.0 | -3 | · | 8 | 0%
c1ccc(OCc2nn3c(-c4ccccn4)nnc3s2)cc1 | 2.6 | -4 | -32 | -1 | -11% | Arbovirus inh repeat=-1
COc1ccc(OC)c2sc(N3CCc4ccccc4C3)nc12 | -7.2 | 7 | · | -9 | 11%
c1ccc(-c2csc3nnc(SCc4ccc5c(c4)OCCO5)n23)cc1 | -0.5 | 19 | -26 | -2 | 13%
Brc1ccc(-c2nnc(SCCC3OCCCO3)o2)cc1 | · | 86 | -21 | 7 | 14%
CCc1ccc(CNc2ccc(N3CCN(C(C)=O)CC3)cc2)cc1 | -4.7 | 6 | -13 | 0 | 6%
CCOc1ccc(CCNC(=O)c2ccc3c(c2)NC(=O)C2CCCN32)cc1OCC (stereo not given) | -60 | 3 | · | · | ·
COc1ccc(-c2cc(CCCC(=O)NCc3ccccn3)no2)cc1 | 1.2 | -3 | -1 | -2 | 22% | Arbovirus inh repeat=2
COc1ccc(CNc2ncnc3cc(Cl)ccc23)cc1OC | -1.3 | · | · | 11 | 3%
Cc1ccccc1C(=O)NCCNc1ccc([N+](=O)[O-])cc1 | · | -3 | · | 2 | -6%
Cc1ccsc1C(=O)OCC(=O)NCCNC(=O)COC(=O)c1sccc1C | 0.5 | 0 | · | · | ·
COC(=O)COc1cc(OCC(=O)OC)c2c(C)c(Cl)c(=O)oc2c1 | -1.4 | 8 | -23 | 1 | -8%
COC(=O)CC1C(=O)NCCN1C(=O)Nc1ccc(Cl)cc1 (stereo not given) | -4.4 | -13 | 22 | -2 | -3%
O=C(NCCc1ccccc1)C1CCCN(c2ncnc3c2nc2n3CCCCC2)C1 (stereo not given) | 0.5 | -2 | · | · | ·
Cc1ccc(S(=O)(=O)Nc2cccc(C(=O)N3CCN(c4ccccc4O)CC3)c2)cc1F | 4.8 | 1 | · | · | ·
O=C(c1ccco1)N1CCN(c2ncnc3sc4c(c23)CCC4)CC1 | 4.9 | 10 | -38 | 9 | 7%
COC(=O)Nc1ccc(S(=O)(=O)N2CCCCC2C(=O)O)cc1 (stereo not given) | · | 7 | · | 5 | 3%
CC1CCCC(C)N1C(=O)CSc1nccc(=O)[nH]1 (stereo not given) | 0.2 | 4 | · | · | ·
COC(=O)c1ccc(/C=N/OCC(=O)NC2CCCC(C)C2C)cc1 (stereo not given) | 5.0 | -5 | -4 | 6 | 11%
Cc1ccc(Oc2cc(NC(=O)CCCn3nc([N+](=O)[O-])cc3C)cc([N+](=O)[O-])c2)cc1 | 6.1 | 99 | -20 | -16 | 12µM*
COCCNC(=O)C1CC(c2ccccc2[N+](=O)[O-])=NO1 (stereo not given) | -1.7 | 2 | -19 | 2 | -15%
Cc1nc2sc(C(c3ccco3)N3CCC4(CC3)OCCO4)c(O)n2n1 (stereo not given) | 0.0 | 3 | -26 | · | -5%
O=C(Nc1ccc2c(c1)OCCO2)c1ccoc1 | -1.2 | -7 | · | · | -6%

Two entries picked at random from those above:
SMILES | RecA splice inh | Mtb bLac sens | YopH PTP inh | Arbovirus inh | Mtb growth | others
O=C(NCCc1ccccc1)C1CCCN(c2ncnc3c2nc2n3CCCCC2)C1 (stereo not given) | 0.5 | -2 | · | · | ·
CC(=O)NC(Cc1cccc(F)c1)C(=O)NC1CCN(C(=O)Nc2ccc(C)cc2)CC1 (stereo not given) | 2.7 | -2 | · | · | ·

(next part)
SMILES | RecA splice inh | Mtb bLac sens | YopH PTP inh | Arbovirus inh | Mtb growth | others
CCN(CC)c1ccc2c(C)c(-c3ccc(N)cc3)c(=O)oc2c1 | -217 | 59 | -36 | -18 | ·
CCOc1cc(CNCCO)cc(Br)c1OCc1ccc(Cl)cc1 | 2.6 | 99 | -2 | -33 | ·
Fc1ccc(-c2ncc3ccccn23)cc1 | -3.5 | 0 | · | -1 | -3%
Cc1ccccc1NC(=O)c1ccccn1 | -1.0 | -7 | · | · | -1%
Cc1cnc(C(=O)Nc2ccc(S(=O)(=O)N(C(C)C)C(C)C)cc2)cn1 | 0.3 | -1 | · | · | ·
CC(C)(C)NC(=O)NC(=O)CN1C(=O)NC(C)(c2ccccc2)C1=O (stereo not given) | 1.0 | -3 | · | · | ·
Cc1onc(-c2c(F)cccc2Cl)c1C(=O)N(Cc1ccccc1)C(C)C | -3.7 | 3 | · | · | ·
Cc1sc2ncnc(N3CCN(C(=O)c4ccco4)CC3)c2c1C | -5.8 | -5 | · | -4 | 3%
COc1ccc(C(C)=O)cc1COC(=O)Cc1cc(OC)c(OC)c(OC)c1 | 0.9 | -2 | · | · | ·
Cc1cccc(-n2nnnc2SCn2nnc3ccccc3c2=O)c1 | -0.5 | 0 | -7 | 6 | -11%
CC(=O)N1CCCc2cc(S(=O)(=O)N3CCCC(C(=O)N4CCN(c5ccccc5)CC4)C3)ccc21 (stereo not given) | -0.3 | -4 | · | · | ·
CCC/C(C)=N\Nc1nc2c(c(=O)n(C)c(=O)n2C)n1C | -7.7 | 1 | · | · | 3%
O=C(Nc1ccccc1C(=O)N1CCCCCC1)c1ccccc1Cl | 0.4 | 1 | · | 4 | 0%
O=C(O)CCCCCNS(=O)(=O)c1c(Cl)cccc1Cl | 0.6 | 9 | -28 | 0 | -7%
COCCCN1C(=O)c2ccc(C(=O)Nc3ccc(OC)cc3)cc2C1=O | 0.4 | -7 | -4 | -3 | 0%
Cc1ccc(-c2[nH]ncc2CNCCc2cnn(-c3ccccc3)c2)cc1C | -0.1 | 1 | · | · | 3%
O=C(NCCc1ccc(Cl)cc1)C1CC(=O)N(C2CCCCC2)C1 (stereo not given) | -1.0 | 4 | -48 | 1 | -8% | Arbovirus inh repeat=-1
Cc1cccc(N(CC(=O)N=Nc2c(O)[nH]c3ccccc23)S(C)(=O)=O)c1C | 2.7 | -2 | -31 | 10 | 4%
COc1ccc2c(=O)c3c(=O)n(Cc4ccco4)c(C(C)C)nc3oc2c1 | 0.1 | 31 | 15 | -1 | -2%
O=C(N/N=C/c1c[nH]c2ccccc12)C1CC(=O)N(c2ccccc2)C1 (stereo not given) | -0.2 | 9 | · | -6 | 2%
COc1cc(Cl)c(C)cc1NC(=O)CN1CCCCCC1 | 2.3 | 4 | · | · | ·
Cc1ccc(O)c(-c2cc(C(=O)Nc3cccnc3)[nH]n2)c1 | 4.0 | -4 | · | · | -10%
COC(=O)COc1ccc(/C=N/NC(=O)c2ccc(N(Cc3ccccc3)S(C)(=O)=O)cc2)cc1 | -0.2 | 71 | -14 | -1 | 32%
COc1c(Br)cc(C(N)=O)cc1OCc1ccccc1 | 1.7 | 3 | -36 | -7 | 6%
CC1=Nc2cc(C(=O)NCCCN3CCOCC3)ccc2Sc2c(C)ccc(C)c21 | 2.5 | 1 | · | · | ·
Oc1cccc(/C=N/Nc2cccc3cccnc23)c1 | 11 | · | · | -1 | 4%
CC(=O)Nc1ccc(NC(=O)COC(=O)/C(=C/c2ccccc2)n2nnnc2C)cc1 | -0.2 | -15 | · | · | ·
CC(=O)n1c2ccccc2c2nc(NC(C)C)sc21 | 0.5 | -9 | 21 | 1 | -5%
CCCc1ccc(C(=O)CCC(=O)O)cc1 | 0.6 | -2 | -27 | -17 | 2%
CC1CN(C(=O)c2ccn(C)n2)CC(C)O1 (stereo not given) | 2.2 | 18 | -43 | 8 | -3%
O=C(CSCc1ccccc1Cl)Nc1ccc2c(c1)OCCO2 | 5.0 | -6 | -23 | -2 | -5%

These rows are one share of the data (hit frequency here may not be typical).
